High-throughput results (PubChem BioAssay)
PKD1 inh = PKD1 (human) kinase inhibition. Q15139. PKD1 kinase fluorescence polarization assay. inhibition, %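 (about 10 µM by stock and volumes)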. hit rate 0.056% among 200,000. AID 797;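 active = inhibition of 50% or more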;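 note: controls were vehicle for no effect and a reference inhibitor for full effect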
HSV augment = increases HSV replication in cells | HSV replication augmentation in cells, fold increase | maximum fold increase | hit rate 0.005% among 220,000 | AID 1956;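 active = peak rise of 1.5-fold or more in the series; tested in PC3 cells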;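 note: first round at 10 µM; read as green reporter fluorescence; hits show the peak of a series up to 25 µM; 1 = signal of infected wells without compound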
GALR2 ag = GALR2 (human) receptor agonism; GALR2-expressing cells, agonist activation read-out; AID 803; O43603; hit rate 0.48% among 140,000; activation, %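 (tested at 5 µM)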;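 active = above mean plus 3 SD of all compounds, about 5% in these data, not always enough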;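 note: 0% = vehicle buffer wells and 100% = reference agonist at full effect; tested in CHO reporter cells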
Target sequence (O43603 whole entry, looked up): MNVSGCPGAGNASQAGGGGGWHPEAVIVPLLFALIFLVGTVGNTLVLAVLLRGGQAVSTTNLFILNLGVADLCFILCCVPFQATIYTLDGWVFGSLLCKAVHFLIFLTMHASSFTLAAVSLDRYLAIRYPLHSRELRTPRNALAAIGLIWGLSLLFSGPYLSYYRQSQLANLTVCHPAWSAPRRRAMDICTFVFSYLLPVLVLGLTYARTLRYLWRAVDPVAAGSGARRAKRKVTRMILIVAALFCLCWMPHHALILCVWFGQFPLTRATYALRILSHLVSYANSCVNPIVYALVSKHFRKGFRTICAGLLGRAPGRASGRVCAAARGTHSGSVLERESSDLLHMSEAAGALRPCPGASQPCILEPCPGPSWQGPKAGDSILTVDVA
INS promoter inh = TRM-6 insulin promoter activity inhibition; TRM-6 cells (human fetal islet line), insulin promoter-eGFP reporter, imaging; reporter expression induced with tamoxifen; inhibition, % at 2 µM; hit rate 0.9% among 130,000;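 active = inhibition above the mean plus 3 SD, with well images judged a real hit on visual review, cut at about 60% in these data, passing the limit was not always enough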
RGS16-Gao HTS = regulators of human RGS16-Galphao interaction; binding response (% of control), % at 10 µM; hit rate 0.38% among 220,000; bead-based flow cytometry RGS16-Galphao binding, fluorescence; actives lie on both sides; O15492+P09471;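 active = below 25% or above 175%, edge rows of some plates excepted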;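 note: Galphao activated by GDP with aluminum fluoride before binding; 100% = wells without compound and 0% = beads without RGS; some results beyond the cut were filed as inactive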
Target sequence (O15492 whole entry, looked up): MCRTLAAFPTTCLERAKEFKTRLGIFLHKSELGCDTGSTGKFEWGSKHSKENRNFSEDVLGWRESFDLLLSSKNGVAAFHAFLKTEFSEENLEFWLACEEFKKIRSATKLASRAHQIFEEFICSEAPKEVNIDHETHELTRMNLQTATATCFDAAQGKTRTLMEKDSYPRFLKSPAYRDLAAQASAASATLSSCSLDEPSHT
Target sequence (P09471 whole entry, looked up): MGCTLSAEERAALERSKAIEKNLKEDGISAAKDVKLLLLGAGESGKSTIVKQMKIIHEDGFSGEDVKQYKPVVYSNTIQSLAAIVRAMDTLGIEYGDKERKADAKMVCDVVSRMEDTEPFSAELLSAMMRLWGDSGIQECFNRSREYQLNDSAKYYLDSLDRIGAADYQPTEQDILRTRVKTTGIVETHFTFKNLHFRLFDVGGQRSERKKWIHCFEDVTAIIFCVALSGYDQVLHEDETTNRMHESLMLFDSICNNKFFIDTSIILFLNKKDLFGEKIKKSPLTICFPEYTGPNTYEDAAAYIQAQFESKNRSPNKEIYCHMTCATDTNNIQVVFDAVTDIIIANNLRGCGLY
INS promoter inh cell count = second read-out of INS promoter inh, no call of its own (marks repeat the call); normalized cell count, %; measured here: cell count, toxicity; reference of the scale not given here;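 cells exposed to compound for 48 h; stained nuclei by imaging scaled within each plate; lower means fewer cells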
HSV augment primary fold = recorded beside HSV augment, whose call it bears; fold increase; compound at 10 µM; measured here: primary screen fold increase 10 uM; tested in PC3 cells;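 GFP signal in the first replicate; 1 = infected wells without compound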
* = called active by the depositor; i = inactive; · = not tested or not shown.

SMILES	PKD1 inh	HSV augment	HSV augment primary fold	GALR2 ag	INS promoter inh	INS promoter inh cell count	RGS16-Gao HTS
COc1cc(Cl)c(C)cc1NC(=O)COC(=O)c1cnc(C)cn1	0	i	1	-0.7	-56	109	99
CC(CNC(=S)Nc1cc(F)cc(F)c1)CSc1ccc(Cl)cc1 (centres undefined)	-4	i	0.95	·	·	·	97
CCCn1c(SCC(=O)Nc2cccc(S(=O)(=O)N(C)C)c2)nc2ccccc2c1=O	·	i	1.2	·	·	·	106
COCCCN1CCN(C2Cc3ccccc3Sc3ccc(Cl)cc32)CC1 (centres undefined)	-2	i	0.91	2.5	-31	91	115
N#Cc1cccc(NC(=O)c2nc(-c3ccccc3)n(-c3ccccc3)n2)c1	-4	i	0.91	-1.7	-29	133	107
O=C(Cc1csc(Nc2nc(=S)[nH]c3ccccc23)n1)NCCCN1CCN(c2ccccc2F)CC1	0	i	0.72	·	-7	128	104
CCCn1nc2cc(C(=O)NCCCCc3ccccc3)ccc2c1OCC	-1	i	0.7	-2.9	·	·	108
CN(C)CCCNC(=O)/C=C/c1ccc(OCc2c(F)cccc2Cl)cc1	-6	i	0.8	·	-33	83	99
COc1cccc(/C=C/C(=O)Nc2ccccc2N2CCOCC2)c1	1	i	0.91	·	-42	113	94
CCN1/C(=C/c2ccc3cc(C)ccc3[n+]2CC)Sc2ccccc21	-25	·	·	-0.1	-170	21	110
CN(C(=O)CSc1nc2ccc([N+](=O)[O-])cc2s1)C1CCS(=O)(=O)C1 (centres undefined)	·	i	0.99	·	·	·	96
CC(/C=N/n1c(COc2ccccc2)n[nH]c1=S)=C\c1ccco1	·	i	1	·	·	·	99
O=C(Cc1ncc(C(F)(F)F)cc1Cl)NC1CC1	-7	i	0.6	·	20	95	100
O=[N+]([O-])c1ccc(C(=S)N2CCN(Cc3ccccc3)CC2)cc1	-8	i	0.94	-3.4	-67	139	101
FC(F)(F)c1cnc(-c2cnc(-c3cccnc3)nc2)c(Cl)c1	-3	i	1	·	2	134	100
Cc1oc2c(cc(NS(=O)(=O)c3ccc4c5c(cccc35)C(=O)N4)c3ccccc32)c1C(=O)OC(C)C	-5	·	·	0.0	-35	85	101
CCOC(=O)C1CCN(C(=O)Cn2cc(C(=O)OC)c3ccccc32)CC1	-7	i	0.86	·	-13	84	103
Cc1cc(C)c(S(=O)(=O)n2ccc3ccccc32)c(C)c1	-2	·	·	-2.1	-12	98	93
O=C(COC(=O)c1ccc(Cl)nc1)Nc1ccc2c(c1)OCO2	0	i	0.87	·	-21	91	104
COC(=O)CSc1nnc(CSc2nc(C)cc(C)n2)o1	-5	i	0.97	-1.1	50	98	108
CC(NS(=O)(=O)c1ccc(OCC(=O)Nc2cccc([N+](=O)[O-])c2)cc1)c1ccccc1 (centres undefined)	-3	i	0.86	-0.2	-32	73	54
Cc1noc(C)c1N=Nc1ccc(Br)cc1C(=O)O	-4	i	0.88	·	·	·	95
CN1C(=O)Cc2cc(S(=O)(=O)NCc3cccs3)ccc21	3	i	0.88	·	40	56	104
Cc1occc1C(=O)NCCc1ccc(Cl)cc1	1	i	0.98	0.8	19	127	96
O=c1[nH]c(C2CCCN(S(=O)(=O)c3ccc(F)cc3)C2)nc2c1nnn2Cc1ccccc1 (centres undefined)	-6	i	0.77	-0.6	·	·	106
O=C(NCCc1cccs1)C1CC(c2ccc([N+](=O)[O-])cc2)=NO1 (centres undefined)	8	i	1	0.5	4	43	82
NS(=O)(=O)c1ccc(CCNC2CC(=O)N(Cc3ccccc3)C2=O)cc1 (centres undefined)	-7	i	0.86	-1.2	-31	112	102
COc1ccc(NC(=O)c2ccc(S(=O)(=O)N(C)C)cc2)cc1	-2	i	0.93	·	·	·	102
O=C(NCC1CCCO1)C1CC(c2ccccc2Cl)=NO1 (centres undefined)	8	i	0.95	-0.8	-3	49	100
Cc1ccc(NC(=O)COC(=O)CCC(=O)c2ccc(C(C)(C)C)cc2)c([N+](=O)[O-])c1	-11	i	1	-0.4	7	126	106
CCc1ccc2c(c1)C(c1cccs1)=NNC(c1cccnc1)=N2	8	i	0.73	-1.4	·	·	102
O=C(NC1CC2CCCC(C1)N2C(=O)NCc1ccccc1)C1CC1 (centres undefined)	-8	i	0.85	-1.7	-3	148	98
O=C(N/N=C/c1cccn1-c1ccc([N+](=O)[O-])cc1)c1cccnc1	·	i	0.88	·	·	·	100
CCCn1c(=O)c2c(nc3n2CCS3)n(C)c1=O	3	i	0.89	·	-128	84	96
CCCc1nc2ccccc2c(=O)n1NC(=O)c1c(O)c2ccccc2n(C)c1=O	4	i	0.98	·	·	·	102
C=CCn1c(SCC(=O)Nc2nc(C)cs2)nnc1C(NC(=O)c1ccccc1)C(C)C (centres undefined)	-1	i	0.84	-2.2	-134	134	108

Next part; it opens with the 2 that closed the last part.
SMILES	PKD1 inh	HSV augment	HSV augment primary fold	GALR2 ag	INS promoter inh	INS promoter inh cell count	RGS16-Gao HTS
CCCc1nc2ccccc2c(=O)n1NC(=O)c1c(O)c2ccccc2n(C)c1=O	4	i	0.98	·	·	·	102
C=CCn1c(SCC(=O)Nc2nc(C)cs2)nnc1C(NC(=O)c1ccccc1)C(C)C (centres undefined)	-1	i	0.84	-2.2	-134	134	108
Cc1ccc(S(=O)(=O)N2CCN(CCO)CC2)cc1-c1nnc2c3ccccc3c(C)nn12	-4	i	1.3	1.9	32	87	·
O=C(COC(=O)c1c(Cl)cccc1Cl)Nc1ccccc1Br	-6	i	0.99	-1.5	-62	73	104
COc1cc(/C=N\NC(=O)c2c(C)nc3cc(C)ccn23)ccc1O	6	i	1	·	17	98	89
CC(=O)c1cnc(Nc2cccc(Cl)c2Cl)s1	-10	i	0.96	·	9	67	105
NS(=O)(=O)c1ccc(NC(=O)CSc2ccccn2)cc1	-7	i	0.9	-2.5	-27	82	74
COc1ccc(NC(=S)N2CCC(C(=O)c3ccc(C)cc3)CC2)c(OC)c1	5	i	1.1	·	45	90	97
COc1ccc(/C=N/OCC(=O)N2CC3(C)CC2CC(C)(C)C3)cc1OC (centres undefined)	18	i	1.1	-2.7	-84	100	100
CC1CCN(S(=O)(=O)c2ccc3c(c2)c(=O)c(C(=O)NCc2ccccc2Cl)cn3C)CC1	0	i	0.9	-2.5	44	116	82
NCC(c1ccccc1)(c1ccccc1)c1ccccc1	10	i	0.68	-0.7	-37	100	24*
Cc1cccc(NC(=O)CCC(=O)N/N=C/c2ccco2)c1C	-5	i	1	-0.9	-7	106	102
Cc1[nH]c2ccc(-c3n[nH]c(=S)n3C)cc2c1C	-6	i	0.78	-1.7	·	·	100
CCOC(=O)c1cnc(SCC(=O)c2ccc3c(c2)OCCO3)nc1N	0	i	0.95	-2.4	·	·	103
Cc1c(NC(=O)/C(=C/c2cccs2)NC(=O)c2ccccc2)c(=O)n(-c2ccccc2)n1C	-4	i	0.94	·	36	74	108
COc1ccc2c(CC(=O)OCC(=O)c3ccc(F)cc3)coc2c1	10	i	0.96	-3.3	·	·	105
Cc1ccc2oc(=O)cc(CN3CCN(C/C=C/c4ccccc4)CC3)c2c1	·	i	0.99	·	·	·	94
Cc1cc2oc3c(c(=O)c2cc1C)C(c1ccc(C(C)C)cc1)N(CCCN1CCOCC1)C3=O (centres undefined)	-7	·	·	-1.7	10	59	104
CCOc1ccc(C2C(=O)N(C3CCCCC3)CC(=O)N2CC2CCCO2)cc1OC (centres undefined)	-5	·	·	-1.6	·	·	92
Cc1ccc(C(C)n2cc(C(=O)NCCN3CCN(C)CC3)nn2)cc1 (centres undefined)	-13	i	0.95	-2.3	·	·	100
O=C(CSc1ccccc1)Nc1cccc(NC(=O)c2ccco2)c1	-4	i	0.93	-3.8	52	113	96
CCN(CC)CCNC(=O)c1ccc(NC(=O)c2ccc(Cl)c(S(=O)(=O)N3CCCCCC3)c2)cc1	·	i	0.73	·	·	·	108
CCC1=NN(C(=O)c2ccccc2Br)C(O)(c2ccc(Br)cc2)C1 (centres undefined)	-2	i	0.95	·	-6	113	104
CS(=O)(=O)c1ccc(C(=O)OCC(=O)NC23CC4CC(CC(C4)C2)C3)cc1[N+](=O)[O-]	-10	i	0.82	0.4	37	109	90
COc1ccc(NC(=S)NC(NC(C)=O)C(Cl)(Cl)Cl)c([N+](=O)[O-])c1 (centres undefined)	-8	i	0.99	-0.3	·	·	91
CSc1ccccc1-c1nnc(-c2ccc(Cl)c(Cl)c2)o1	-9	i	0.97	-2.4	40	135	101

Taken from above.
CSc1ccccc1-c1nnc(-c2ccc(Cl)c(Cl)c2)o1 in INS promoter inh is entered as 40
Cc1ccc(C(C)n2cc(C(=O)NCCN3CCN(C)CC3)nn2)cc1 (centres undefined) in HSV augment primary fold is entered as 0.95
Cc1ccc2oc(=O)cc(CN3CCN(C/C=C/c4ccccc4)CC3)c2c1 in RGS16-Gao HTS is entered as 94
CCC1=NN(C(=O)c2ccccc2Br)C(O)(c2ccc(Br)cc2)C1 (centres undefined) in INS promoter inh is entered as -6

Later entries.
SMILES	PKD1 inh	HSV augment	HSV augment primary fold	GALR2 ag	INS promoter inh	INS promoter inh cell count	RGS16-Gao HTS
COC(=O)c1c(-c2ccc(C)cc2)csc1N	-14	i	0.82	-1.4	·	·	95
CC(C)CC(NC(=O)c1ccc(C#CC(C)(C)O)s1)C(=O)O (centres undefined)	9	i	1	·	·	·	108
O=C(N/N=C/c1ccc(Cl)cc1Cl)c1cccc(F)c1	-12	·	·	-0.1	65	94	85
C=CCSc1nc2c(c(=O)[nH]c(=O)n2C)n1CC	1	i	0.87	-0.6	-18	150	51
Cc1c(NC(=O)c2ccc3c(c2)OCO3)cccc1-c1nc2ccccc2o1	-6	i	0.82	-1.7	·	·	107
Fc1ccc(-c2nn(-c3ccccc3)cc2CNCc2ccccc2)cc1	-2	i	0.77	·	·	·	104
Cc1cccc(NC(=O)c2nnn(-c3cccc(C(F)(F)F)c3)c2N)c1	0	i	0.93	·	-13	93	104
CNS(=O)(=O)c1cccc2nsnc12	-12	i	1.1	-1.1	·	·	114
CCCNC(=O)CS(=O)Cc1nc(-c2cccc(OC)c2)oc1C (centres undefined)	-5	i	0.9	-1.6	·	·	101
COc1ccc(CCN(C)c2ccc(C(N)=O)cc2[N+](=O)[O-])cc1OC	-1	i	0.88	·	·	·	104
Cn1cc([N+](=O)[O-])c(C(=O)Nc2cc(Oc3ccccc3)cc([N+](=O)[O-])c2)n1	2	i	0.52	2.7	53	21	104
Cc1ccccc1-n1c(-c2ccoc2C)n[nH]c1=S	-20	i	0.98	0.3	6	102	86
COc1cc(-n2c(C)nc3cc(C(=O)N4CCOCC4)ccc32)cc(OC)c1OC	-6	i	0.88	-1.6	-57	106	97
OCCC1CN(Cc2ccccc2-c2ccco2)CCN1C1CCCC1 (centres undefined)	-1	i	1	·	·	·	99
O=C(Cc1ccccc1)N/N=C/c1ccc(OCC(=O)Nc2ccccc2)cc1	5	i	0.91	-3.0	6	146	83
CC(=O)Nc1cc(C(F)(F)F)ccc1Oc1cccc(Br)c1	5	i	0.93	-1.3	·	·	101
Cn1c(Cn2cnc([N+](=O)[O-])n2)nnc1SCC(=O)Nc1cccc(Cl)c1	-8	i	0.99	-1.2	10	120	100
CC(C)(C)n1nnnc1CN(Cc1ccc(F)cc1)Cc1ccco1	-6	i	0.93	-1.3	-45	96	103
Cc1n[nH]c(=S)n1/N=C/c1ccccc1	-6	i	0.95	-1.4	50	116	103
CC(C)NC(=O)N(O)C1N(C(C)C)C(=O)N(Cc2ccc3c(c2)OCO3)C1(C)C (centres undefined)	·	i	1.1	·	·	·	100
CC1CCc2cc(F)ccc2N1C(=O)c1ccc2c(c1)OCO2 (centres undefined)	-5	i	0.88	0.1	-39	52	103
CCN1CCN(CC(O)COC(c2ccccc2)c2ccccc2)CC1 (centres undefined)	-9	i	0.96	·	-7	132	104
Cc1nc(NS(=O)(=O)c2cccs2)c2c3c(sc2n1)CCC3	-5	i	0.91	0.2	·	·	96
O=C(O)CSc1nnc(Nc2ccccc2)n1-c1ccccc1	-4	i	1.1	·	·	·	67
CCC(CC)C(=O)Nc1cc(=O)n(C)c(=O)n1C	-10	i	0.99	-1.9	·	·	101
COc1ccc(CCCc2nnc(SCc3nc4ccccc4c(=O)[nH]3)n2C)cc1	-8	i	0.91	·	17	90	111
CCn1cc(C(=O)NCc2cccc(F)c2)c(=O)c2cc(F)c(N3CCN(C(=O)c4ccco4)CC3)cc21	-8	i	0.66	-0.2	-48	180	121

Part of the list above, comma-delimited:
SMILES,PKD1 inh,HSV augment,HSV augment primary fold,GALR2 ag,INS promoter inh,INS promoter inh cell count,RGS16-Gao HTS
COc1cc(-n2c(C)nc3cc(C(=O)N4CCOCC4)ccc32)cc(OC)c1OC,-6,i,0.88,-1.6,-57,106,97
CCn1cc(C(=O)NCc2cccc(F)c2)c(=O)c2cc(F)c(N3CCN(C(=O)c4ccco4)CC3)cc21,-8,i,0.66,-0.2,-48,180,121
